Source: PubChem BioAssay
miR-21 FLuc: miR-21 reporter, rising signal; HeLa miR-21 FLuc reporter, luciferase, 48 h; 340,000 tested, under 10 active; Potency, µM (top dose mostly 38.3 µM), for inactives: top-dose reporter change, positive = more light; AID 2288; active = well fitted rising curve with a large enough effect; inconclusive = small, poorly fitted or top-dose-only effect; inactive = no such curve, though single readings can be large or run the other way;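 note: % of control where 0% means no effect; miR-21 action dims this reporter so a rising signal means less miR-21 action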
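HeLa cells stably expressing CMV-driven firefly luciferase with a downstream miR-21 binding sequence, endogenously expressing miR-21, were treated with titrations (up to about 40uM final) for 48 hours at 37 degree Celsius. Luciferase luminescence was read after lysis.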
GLA inh pH 4.5: blocks human alpha-galactosidase A at pH 4.5; P06280; activity change, negative = inhibition, % at 105 µM; 230,000 tested, under 10 active; purified enzyme, 4-MU-alpha-Gal fluorescence, pH 4.5; inconclusive = small, poorly fitted or top-dose-only inhibition, or a rising curve; inactive = flat fitted curve, though single readings scatter; no compound was filed as active;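 note: 0% = full activity with enzyme and -100% = basal without enzyme; dose as in the result columns while the protocol names 77 µM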
Target sequence (P06280 whole entry, looked up): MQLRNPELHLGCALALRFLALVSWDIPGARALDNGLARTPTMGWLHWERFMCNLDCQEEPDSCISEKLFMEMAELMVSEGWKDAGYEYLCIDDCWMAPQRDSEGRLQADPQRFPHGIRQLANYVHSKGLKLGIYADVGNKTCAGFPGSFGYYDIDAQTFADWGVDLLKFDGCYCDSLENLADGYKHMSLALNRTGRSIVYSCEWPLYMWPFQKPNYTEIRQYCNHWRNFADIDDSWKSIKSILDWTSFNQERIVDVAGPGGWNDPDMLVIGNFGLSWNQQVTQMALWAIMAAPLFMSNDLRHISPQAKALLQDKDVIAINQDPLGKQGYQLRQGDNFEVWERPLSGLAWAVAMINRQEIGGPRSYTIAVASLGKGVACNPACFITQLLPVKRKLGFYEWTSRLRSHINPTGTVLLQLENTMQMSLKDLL
Rango complex inh: prevents formation of the Rango-importin beta complex | Rango CFP/YFP FRET sensor + importin beta, 45 min | Potency, µM (doses to about 92.2 µM), without a hit: at the highest dose inhibition of complex formation | hit rate 0.031% among 340,000 | AID 540263; active = rising FRET ratio curve, often small or poorly fitted; inconclusive = mostly compound fluorescence or quenching in the first reads; inactive = flat curves in all reads;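 note: potency is the fitted concentration of half-maximal effect; 0% = DMSO wells and 100% = buffer wells lacking importin beta; nearly all actives have a fitted effect of over 15% in size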
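Inhibition scored from the CFP 486 nm/YFP 530 nm FRET ratio 45 min after adding 0.125 microM importin beta to 50 nM Rango biosensor preincubated 5 min with compound (room temperature, PBS with DTT, Tween-20, BSA). No-importin wells as positive control.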
Rango dissoc inh: inhibitors of RanGTP-induced Rango-importin beta complex dissociation | AID 540253 | O95149+P62826 | hit rate 0.071% among 340,000 | Potency, µM (highest dose often 46.1 µM), for the others: at the top dose activity change, negative = inhibition | Biochemical FRET Rango-importin beta, RanGTP-induced dissociation; active means falling FRET ratio curve, often poorly fitted, with flat reads before Ran was added; inconclusive means other falling curves, or compound fluorescence or quenching; inactive means flat or rising ratio curve;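 note: potency is the fitted concentration of half-maximal effect; % of control where 0% means no effect; nearly all actives have a fitted effect of over 45% in size; -100% = wells without RanGTP and RCC1; the record marks most hits as doubtful in a second field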
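FRET read at 45 min, room temperature: inhibitors block the CFP/YFP signal rise when RanGTP (0.6 uM Ran, 2 mM GTP, 0.2 uM RCC1) frees Rango (0.1 uM) from importin beta (0.25 uM). Pre-read after 5 min compound exposure flags interference.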
An asterisk follows results filed as active; u = inconclusive; x = no result given; & = joins results of further samples; [ ] = another dose, or the depositor's remark. The list is partial, so the mix of outcomes need not match the whole.

cpd	Rango complex inh	miR-21 FLuc	Rango dissoc inh	GLA inh pH 4.5	smiles
1	2.9%	-31%	1%	-8	CN=C1SC(CC(=O)Nc2ccccc2F)C(=O)N1/N=C/c1ccc(O)c(OC)c1 (stereo unspecified)
2	-3.5%	3%	4%	x	FC(F)(F)c1ccccc1CN1CCC(Cc2ccccc2)CC1
3	0.2%	0%	-14%	1	CCOc1ccc(Cl)cc1S(=O)(=O)N1CCN(c2ccc(C)c(C)c2)CC1
4	-3.6%	-12%	2%	3	C=Cn1c(N2CCOCC2)nc2c1c(=O)[nH]c(=O)n2C
5	-2.3%	x	-5%	x	COc1ccc([C@H]2CC(=O)C=C(c3cc(Cl)ccc3C)C2)cc1
6	1.8%	-39%	1%	-17	Cc1nn(-c2ccccc2)c(N)c1N=Nc1ccc(Cl)cc1
7	-1.0%	-66%	12%	-1	N/C(=N\OC(=O)/C=C/c1ccccc1Cl)c1cccnc1
8	-1.5%	x	-10%	x	C[C@H](NC(=O)c1nc[nH]c1C(=O)NCc1ccc(CNC(=O)OC(C)(C)C)cc1)C(=O)OCc1ccccc1
9	2.6%	-47%	18%	x	CC(C)(C)Cc1nnc(NC(=O)c2ccco2)s1
10	2.1%	-3%	-6%	-7	CCOC(=O)c1c(CN2CCCCC2)n(C)c2ccc(OC)c(S(=O)(=O)c3ccccc3)c12
11	-2.9%	-46%	23%	1	CN(C(=O)C1CCOC1)c1nnc(-c2ccccn2)s1 (stereo unspecified)
12	5.0%	-37%	9%	1	COc1ccc(NC(=O)c2cccc(NC(=O)C(C)C)c2)c([N+](=O)[O-])c1
13	-3.1%	-34%	0%	-7	CCOC(=O)c1cnn(-c2ccc(F)cc2)c1N
14	0.2%	0%	8%	x	Cc1cccc(Cc2ncc(C(F)(F)F)cc2Cl)c1
15	-1.9%	-2%	9%	1	CCOCCCNS(=O)(=O)c1ccc(NC(=O)C2CC(=O)N(c3ccc(C)cc3)C2)cc1 (stereo unspecified)
16	3.0%	1%	-4%	12	CCOC(=O)c1cn(CC2CC2)c2cc(F)c(F)cc2c1=O
17	-0.3%	18%	0%	-3	Clc1cccc(Cl)c1COc1ccccc1CNn1cnnc1
18	8.7%	21%	-9%	-2	COC(=O)CC1(C(=O)OC)Oc2ccc(Br)cc2C(=O)N1c1cccc(Cl)c1Cl (stereo unspecified)
19	u	-8%	u	-26	CCCn1c(=N)c(S(=O)(=O)c2ccccc2)cc2c(=O)n3ccccc3nc21
20	-1.2%	-1%	0%	-3	Cc1ccc(NC(=O)Nc2cccnc2)cc1NC(=O)Nc1cccnc1
21	u	-19%&-26%	-20%	0	COCCNC(=O)Cn1c(=O)n(CCCCCC(=O)Nc2ccccc2)c(=O)c2sccc21
22	u	-5%	u	-11	COc1ccc(N=Cc2c(O)n(-c3cccc(C)n3)c(=O)c3ccccc23)cc1
23	-0.3%	0%	-11%	6	CCCCOc1ccc(C(C)NC(=O)CCS(=O)(=O)Cc2ccccc2F)cc1 (stereo unspecified)
24	0.3%	3%	-3%	-3	CCc1c(C)sc(NC(=S)NC(C)C2CCCO2)c1C(=O)OC (stereo unspecified)
25	3.4%	-13%	12%	-3	O=C(NCC12CC3CC(CC(C3)C1)C2)c1nc2ncccn2n1
26	0.0%	-1%	2%	-3	O=C(CSc1nc2ccccc2s1)NC1CCCC1
27	-3.5%	x	-10%	x	Cc1c(C(=O)Nc2ccccn2)oc2ccc(Br)cc12
28	-0.3%	-2%	1%	-1	COc1ccc(S(=O)(=O)N2CCCCC2)cc1NC(=O)c1cc(C)on1
29	-0.7%	-5%	1%	-11	CCCCCNCc1cccn1C
30	-2.6%	5%	1%	-9[21.1 µM]	O=C(CN1CCCCCC1)Nc1ccc(Oc2ccccc2)cc1
31	2.3%	-3%&-2%	28%	3	CCc1ccc(C2CC(=O)Nc3c2c(=O)nc2c(C)cccn32)cc1 (stereo unspecified)
32	-1.9%	-4%	-2%	1	COC(=O)c1sccc1NC(=O)c1c(C)noc1C
33	1.5%	-6%	0%	-5	O=S(=O)(c1ccc(Oc2ccc(-c3nnco3)cc2)nc1)N1CCC(Cc2ccccc2)CC1
34	-2.4%	1%	-18%	-2	CC(C)CN(CC(C)C)S(=O)(=O)N1CCC(C(=O)NC2CCCCCCC2)CC1
35	-0.5%	-1%	1%	-1	CCOC(=O)N1CCN(C(=O)CS(=O)Cc2nc(-c3ccc(C)cc3)oc2C)CC1 (stereo unspecified)
36	-0.9%	x	4%	x	O=C(COC(=O)C1(c2ccccc2)CC1)NNC(=O)c1ccccc1
37	4.8%	24%	-6%	-8	COc1ccccc1N1CCN(CC(O)COCCOc2ccc(Br)cc2)CC1 (stereo unspecified)
38	0.9%	-21%	-5%	4	COc1ccccc1C/C(N)=N/OC(=O)c1ccc2c(c1)OCO2
39	-1.0%	4%	13%	7	Cc1ccc(C)c(OCCCC(=O)Nc2nccs2)c1
40	0.6%	15%	-20%	-3	COCCn1nnnc1C(c1cccs1)N1CCN(c2cc(C)ccc2C)CC1 (stereo unspecified)
41	3.4%	0%	11%	5	O=C(NCc1ccccc1)C1CCCN(S(=O)(=O)c2cccs2)C1 (stereo unspecified)
42	-7.2%	-72%	8%	-7	Cc1ccc2cc(CCNC(=O)c3ccco3)c(=O)[nH]c2c1
43	-2.2%	0%	1%	x	Cc1ccc(OCc2cc(C(=O)N(C)Cc3nccn3C)no2)cc1C
44	0.9%	-10%	-4%	0	CCOC(=O)/C(=C/c1cn(C)c2ccccc12)NC(=O)c1ccccc1
45	2.4%	-9%	0%	-3	O=C(Nc1ccccc1)Nc1ccc(Oc2cccnc2)nc1
46	3.5%	-55%	-5%	x	CCCc1ccc2oc(C(=O)N3CCC(COC)C3)c(C)c2c1 (stereo unspecified)
47	-2.3%	x	-23%	x	CC(=O)OCC1OC(n2c(S)c(C#N)c(-c3ccccc3)c(C#N)c2=O)C(OC(C)=O)C(OC(C)=O)C1OC(C)=O (stereo unspecified)
48	3.5%	-5%	2%	-14	Cc1nnc(SCC(=O)Nc2ccc3c(c2)OCCO3)s1
49	u	-6%	u	5	Cc1ccc2c(n1)sc1c(-c3ccc(Br)cc3)c(C#N)c(N)nc12
50	-1.1%	-7%	-2%	4	COc1cc(C(C)=O)ccc1COc1ccc(C(=O)OC(C)C(=O)NC(N)=O)cc1OC (stereo unspecified)

The results go on:
cpd	Rango complex inh	miR-21 FLuc	Rango dissoc inh	GLA inh pH 4.5	smiles
51	0.0%	2%	10%	x	COc1cccc(CN2CC(C(=O)N3CCN(C(C)C)CC3)CCC2=O)c1 (stereo unspecified)
52	0.6%	-18%	0%	-4	O=S(=O)(Nc1cccc(-c2cn3ccsc3n2)c1)c1ccc(F)cc1
53	2.2%	9%	-10%	3	CC/C(=C\c1oc2cc3ccccc3cc2[n+]1CC)Nc1ccccc1
54	0.3%	-7%	-1%	2	Cc1cc(N2CCOCC2)nc2ccc(NC(=O)C3CCC(C)CC3)cc12 (stereo unspecified)
55	3.8%	x	5%	x	N#CCCN1CCN(CCC#N)C1=S
56	-0.1%	x	11%	x	Cn1c(=O)c2c(nc(CN3CCCCC3)n2CCCc2ccccc2)n(C)c1=O
57	5.1%	10%	6%	x	Cc1c(NC(=S)NC(=O)c2cccc(Br)c2)c(=O)n(-c2ccccc2)n1C
58	3.4%	24%	-3%	x	Cc1ccc2nc(N(CCCN(C)C)C(=O)c3ccc(S(=O)(=O)N4CCc5ccccc5C4)cc3)sc2c1
59	-1.0%	0%	-18%	9	COc1ccc(N2CCN(C(=S)Nc3ccc(C)cc3)CC2)cc1
60	-3.3%	u	-13%	-2	CCOc1ccccc1CNC(=O)c1c([N+](=O)[O-])c(C)nn1C
61	-3.6%	-6%	-4%	3	N/C(=N\OC(=O)/C=C/c1ccccc1)c1ccc(Cl)cc1
62	u	-2%	-15%	x	CCOC(=O)CCCNC(=O)CN1CCC(c2nc3ccccc3s2)CC1
63	x	-1%	x	9	N#Cc1cc2sc3nc4ccccc4n3c2cc1C#N
64	0.2%	0%	0%	-12	Nc1nonc1NC(=O)CSc1ncccc1C(=O)O
65	5.7%	-1%	-1%	-9	CC(C)[N+](C)(C)CC(O)CN(c1ccccc1)c1ccccc1 (stereo unspecified)
66	-3.0%	x	-16%	x	COC(=O)c1sc(NC(=O)COc2ccc(OC)cc2)nc1C
67	0.2%	0%	4%	1	O=C(OC(C(=O)NCc1cccs1)c1ccc(F)cc1)c1ccco1 (stereo unspecified)
68	1.6%	x	-1%	x	COc1ccc(C(=O)NNC(=O)COc2ccc(Cl)cc2C)cc1S(=O)(=O)N1CCOCC1
69	-0.4%	7%	13%	4	CC(C)Oc1cccc(C(=O)Nc2ccc(N3CCN(S(C)(=O)=O)CC3)cc2)c1
70	5.3%	-6%	6%	x	COc1cccc(N2C(=O)CN(Cc3ccc(OC)c(OC)c3)C2=S)c1

Profiles as entered above. Order of screens: Rango complex inh | miR-21 FLuc | Rango dissoc inh | GLA inh pH 4.5
COc1ccc(C(=O)NNC(=O)COc2ccc(Cl)cc2C)cc1S(=O)(=O)N1CCOCC1 in the list: 1.6% | x | -1% | x
CC(C)[N+](C)(C)CC(O)CN(c1ccccc1)c1ccccc1 (stereo unspecified) in the list: 5.7% | -1% | -1% | -9
COc1cccc(N2C(=O)CN(Cc3ccc(OC)c(OC)c3)C2=S)c1 in the list: 5.3% | -6% | 6% | x
CC(C)Oc1cccc(C(=O)Nc2ccc(N3CCN(S(C)(=O)=O)CC3)cc2)c1 in the list: -0.4% | 7% | 13% | 4
O=C(OC(C(=O)NCc1cccs1)c1ccc(F)cc1)c1ccco1 (stereo unspecified) in the list: 0.2% | 0% | 4% | 1

Following part.
cpd	Rango complex inh	miR-21 FLuc	Rango dissoc inh	GLA inh pH 4.5	smiles
71	0.0%	x	-19%	x	Cc1ccc(NC(=O)c2ccc3c(c2)C(=O)N(c2ccccc2C)C3=O)nc1
72	5.6%	-2%	-18%	3	O=C(Nc1cc(S(=O)(=O)N2CCCCC2)ccc1N1CCOCC1)c1cc(=O)[nH]c2ccccc12
73	0.9%	-15%	-3%	x	COc1ccc(N(CC(=O)N/N=C(\C)c2ccc(OC)c(OC)c2)S(=O)(=O)c2ccccc2)cc1
74	0.5%	x	-5%	x	CC(=O)Nc1ccc(C(=O)OCC(=O)N2CC3(C)CC2CC(C)(C)C3)cc1 (stereo unspecified)
75	1.9%	1%	7%	-16	O=C(CSc1nnc(COc2ccccc2Cl)o1)NC(=O)NC1CCCC1

Just miR-21 FLuc, Rango dissoc inh and GLA inh pH 4.5 (3 entries from above):
no. | SMILES | miR-21 FLuc | Rango dissoc inh | GLA inh pH 4.5
71 | Cc1ccc(NC(=O)c2ccc3c(c2)C(=O)N(c2ccccc2C)C3=O)nc1 | x | -19% | x
75 | O=C(CSc1nnc(COc2ccccc2Cl)o1)NC(=O)NC1CCCC1 | 1% | 7% | -16
74 | CC(=O)Nc1ccc(C(=O)OCC(=O)N2CC3(C)CC2CC(C)(C)C3)cc1 (stereo unspecified) | x | -5% | x
